# Screening data (PubChem)
# RGS16-Gao: modulators of RGS16 binding to Galphao, primary screen, biochemical, human proteins, multiplexed bead flow cytometry | actives 0.38% (n = 220,000) | bead-based flow cytometry RGS16-Galphao binding, fluorescence; actives lie on both sides | binding response (% of control), % at 10 µM | AID 1441, 2008;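 active = below 25% or above 175%, edge rows of some plates excepted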;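 also: Galphao activated by GDP with aluminum fluoride before binding; 100% = wells without compound and 0% = beads without RGS; some results beyond the cut were filed as inactive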
# Target sequence (O15492 whole entry, looked up): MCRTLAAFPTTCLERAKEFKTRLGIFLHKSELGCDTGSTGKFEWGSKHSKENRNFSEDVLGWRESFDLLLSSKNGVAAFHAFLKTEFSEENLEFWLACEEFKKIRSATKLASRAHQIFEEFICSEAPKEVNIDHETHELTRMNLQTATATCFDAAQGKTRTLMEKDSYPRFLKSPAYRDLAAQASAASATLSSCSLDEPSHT
# Target sequence (P09471 whole entry, looked up): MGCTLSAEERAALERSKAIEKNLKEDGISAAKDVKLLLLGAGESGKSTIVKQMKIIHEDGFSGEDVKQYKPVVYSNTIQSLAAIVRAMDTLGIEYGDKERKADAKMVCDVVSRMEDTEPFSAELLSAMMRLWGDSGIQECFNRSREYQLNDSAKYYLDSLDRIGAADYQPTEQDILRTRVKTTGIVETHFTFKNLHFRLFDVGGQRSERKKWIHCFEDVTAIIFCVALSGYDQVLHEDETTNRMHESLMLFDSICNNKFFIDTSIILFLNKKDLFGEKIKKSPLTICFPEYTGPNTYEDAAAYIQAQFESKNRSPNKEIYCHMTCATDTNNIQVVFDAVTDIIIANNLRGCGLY
# HSV replic up: enhancers of HSV replication in host cells, fold increase, host cell viability; HSV replication augmentation in cells; maximum fold increase; actives 0.005% (n = 220,000);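 active = peak rise of 1.5-fold or more in the series; tested in PC3 cells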;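 also: first round at 10 µM; read as green reporter fluorescence; hits show the peak of a series up to 25 µM; 1 = signal of infected wells without compound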
# PKD1 inh: inhibitors of human PKD1 kinase, biochemical, fluorescence polarization | Serine/threonine-protein kinase D1 (Homo sapiens), Q15139 | PKD1 kinase fluorescence polarization assay | inhibition, %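 (about 10 µM by stock and volumes)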 | actives 0.056% (n = 200,000) | AID 797, 2007;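 active = inhibition of 50% or more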;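 also: controls were vehicle for no effect and a reference inhibitor for full effect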
# GALR2 agonist: GALR2 receptor agonists, primary screen, cell-based; Galanin receptor type 2 (Homo sapiens), O43603; GALR2-expressing cells, agonist activation read-out; activation, %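 (tested at 5 µM)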; actives 0.48% (n = 140,000);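 active = above mean plus 3 SD of all compounds, about 5% in these data, not always enough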;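 also: 0% = vehicle buffer wells and 100% = reference agonist at full effect; tested in CHO reporter cells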
# Target sequence (O43603 whole entry, looked up): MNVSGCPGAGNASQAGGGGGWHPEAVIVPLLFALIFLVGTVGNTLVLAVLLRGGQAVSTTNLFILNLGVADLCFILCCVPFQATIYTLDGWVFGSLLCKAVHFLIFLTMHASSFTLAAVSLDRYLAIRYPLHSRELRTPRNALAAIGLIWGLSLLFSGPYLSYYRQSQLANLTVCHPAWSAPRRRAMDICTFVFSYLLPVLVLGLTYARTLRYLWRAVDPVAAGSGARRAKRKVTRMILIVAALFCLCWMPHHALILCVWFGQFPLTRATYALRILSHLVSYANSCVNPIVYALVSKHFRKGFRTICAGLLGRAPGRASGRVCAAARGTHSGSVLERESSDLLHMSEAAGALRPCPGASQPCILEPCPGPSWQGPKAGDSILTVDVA
# INS promoter inh: inhibitors of insulin promoter-driven GFP, primary screen, imaging, TRM-6 cells (human fetal islet line), eGFP reporter, cell count | reporter expression induced with tamoxifen | inhibition, % at 2 µM | actives 0.9% (n = 130,000) | AID 1273, 2008;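 active = inhibition above the mean plus 3 SD, with well images judged a real hit on visual review, cut at about 60% in these data, passing the limit was not always enough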
# INS promoter inh cell count: second read-out of INS promoter inh, no call of its own (marks repeat the call); normalized cell count, %; measured here: cell count, toxicity; reference of the scale not given here;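 cells exposed to compound for 48 h; stained nuclei by imaging scaled within each plate; lower means fewer cells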
# HSV replic up primary fold: second read-out of HSV replic up, no call of its own (marks repeat the call); fold increase; compound at 10 µM; measured here: primary screen fold increase 10 uM; tested in PC3 cells;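 GFP signal in the first replicate; 1 = infected wells without compound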
# * = called active by the depositor; i = inactive; / = no result given.
# Preview:
SMILES,RGS16-Gao,HSV replic up,HSV replic up primary fold,PKD1 inh,GALR2 agonist,INS promoter inh,INS promoter inh cell count
C#CCOCCOCCOCCNc1nc(N2CCN(C(=O)[C@H]([C@@H](C)CC)n3cc([C@@H](N)Cc4ccc(O)cc4)nn3)CC2)nc(N2CCN(C(=O)[C@H]([C@@H](C)CC)n3cc([C@@H](N)Cc4ccc(O)cc4)nn3)CC2)n1,100,i,1.1,6,/,/,/
Cc1cccc(C(=O)NC2CCN(S(=O)(=O)c3ccccc3)CC2)c1,102,i,0.82,2,/,8,85

# The whole of this part, from the start:
SMILES,RGS16-Gao,HSV replic up,HSV replic up primary fold,PKD1 inh,GALR2 agonist,INS promoter inh,INS promoter inh cell count
C#CCOCCOCCOCCNc1nc(N2CCN(C(=O)[C@H]([C@@H](C)CC)n3cc([C@@H](N)Cc4ccc(O)cc4)nn3)CC2)nc(N2CCN(C(=O)[C@H]([C@@H](C)CC)n3cc([C@@H](N)Cc4ccc(O)cc4)nn3)CC2)n1,100,i,1.1,6,/,/,/
Cc1cccc(C(=O)NC2CCN(S(=O)(=O)c3ccccc3)CC2)c1,102,i,0.82,2,/,8,85
COc1cccc(CNc2ccc(S(N)(=O)=O)cc2)c1OCc1ccccc1F,107,i,0.93,-8,-0.8,-8,119
Cn1ncc(Cl)c1C(=O)Nc1cc(C(F)(F)F)ccc1F,108,i,1.2,0,-2.7,31,128
CC(C)CC(=O)Nc1cccc(-c2nc3ccccc3[nH]2)c1,103,i,0.92,/,/,/,/
Cc1ccc(NC(=O)C(=O)NN)cc1,85,i,0.91,/,/,/,/
CCCCOc1ccc(C(=O)NC)cc1,105,i,0.91,-7,-1.3,54,130
COc1ccc(C(C(=O)NC(C)C)N(C(=O)CCC(=O)Nc2nccs2)c2ccccc2F)cc1 (configuration not stated),105,i,0.93,-9,/,/,/
Cc1nc2nc(CSc3nnc(C)s3)cc(=O)n2[nH]1,102,i,1.1,-4,-2.1,/,/
Cn1cnnc1Sc1ccc(C(=O)OCC(=O)Nc2ccccc2)cc1[N+](=O)[O-],66,i,1,7,0.3,17,114
Cc1ccc(S(=O)(=O)N2CC=C(C(=O)NCc3ccccc3)CC2)cc1,104,i,0.88,0,-1.5,-56,114
Cn1ncc(C#N)c1/N=C/N1CCCC1,109,i,1.1,1,-2.0,44,130
O=C(CSc1nc2ccccc2c(=O)n1-c1ccc(F)c(Cl)c1)Nc1cccc(S(=O)(=O)N2CCOCC2)c1,104,i,0.88,-2,-0.1,0,132
Cc1ccccc1N/N=C/c1ccc(N2CCOCC2)cc1,104,i,0.85,-10,-3.4,/,/
COc1ccccc1CN(CC(=O)NCC1CCCO1)C(=O)CNS(=O)(=O)c1ccc(C)cc1 (configuration not stated),96,i,0.83,-7,-2.6,-73,91
COCc1[nH]nc2c1C(c1sccc1C)C(C#N)=C(N)O2 (configuration not stated),105,/,/,-20,-2.0,/,/
Cc1ccc(-c2cccc(NC(=O)C3C4C=CC(C4)C3C(=O)O)c2)o1 (configuration not stated),110,i,0.91,3,-1.4,-30,86
Cc1cccc(CCNS(=O)(=O)c2ccc(S(=O)(=O)NC3CCCC3)cc2)c1,83,i,0.76,-4,-0.9,-29,63
Cc1ccc2nc(SCC(=O)c3c[nH]c4ccccc34)[nH]c2c1,105,i,0.96,-1,/,/,/
Cc1ccccc1Nc1nnc(SCc2nc3ccccc3c(=O)[nH]2)s1,105,i,0.93,-1,/,/,/
CCOc1ccccc1N1CCN(C(=S)NCc2ccc(Cl)cc2)CC1,98,i,1.1,-6,/,/,/
COc1ccc(NC(=O)C2CC(c3cc(OC)c(OC)c(OC)c3)=NO2)cc1OC (configuration not stated),99,i,1.1,-4,-0.2,/,/
CCCCC(c1nnnn1CCOC)N1CCN(c2cccc(OC)c2)CC1 (configuration not stated),105,i,0.82,13,-1.4,/,/
CCOC(=O)c1nnc(-c2ccccc2)[nH]c1=O,106,i,0.9,2,/,/,/
CC1CCN(CC(O)COCCC23CC4CC(CC(C4)C2)C3)CC1 (configuration not stated),102,i,0.77,3,1.2,-54,71
# Further records follow.
SMILES,RGS16-Gao,HSV replic up,HSV replic up primary fold,PKD1 inh,GALR2 agonist,INS promoter inh,INS promoter inh cell count
O=C(O)c1cc(O)ccc1-c1ccc(O)cc1,77,i,0.88,7,-0.6,/,/
O=C(O)C1CCCCC1C(=O)Nc1ccccn1 (configuration not stated),120,i,1,-3,-1.1,-11,61
Cc1cc(CNCc2c(C(=O)N3CCCCCCC3)nc3ccc(Cl)cn23)nn1C,106,i,1,1,/,40,88
CCOC(=O)c1[nH]c2ccc(OC)cc2c1NC(=O)CN1CCc2ccccc2C1,166,i,0.81,2,-1.5,-28,70
CCC(=O)NCCc1c[nH]c2ccccc12,102,i,0.9,-5,-1.7,-43,97
COc1ccc(C2/C=C\CN(C(=O)C3CCCC3)[C@H](Cc3ccccc3)C(=O)N2Cc2ccc(F)cc2)cc1 (some centres not stated),100,i,1,/,/,/,/
CCOc1nc(OCC)nc(N2CCC(C)CC2)n1,114,i,0.92,-9,-2.1,-344,38
Clc1ccc(Cl)c(OCc2cc(-c3ccccc3Cl)on2)c1,102,i,0.92,5,-0.3,20,104
CCOc1ccc(CC(=O)NCc2cn3c(C)csc3n2)cc1,104,i,0.96,-4,-1.1,/,/
CC(C)(C)c1ccc(C2CC2C(=O)N/N=C\c2ccc[nH]2)cc1 (configuration not stated),112,i,0.66,-4,/,/,/
COCCNS(=O)(=O)c1ccc2c(c1)C(=O)c1cc(S(=O)(=O)NCCOC)ccc1-2,75,i,0.9,-3,-0.8,35,16
CCc1ccccc1N1C(=O)C2CC=CCC2C1=O (configuration not stated),98,i,1,4,-1.3,14,106
CC(=O)c1c(C)n(-c2ccccc2)c2ccc(O)cc12,101,i,0.82,0,-4.1,-118,46
C/C(N)=C(/C#N)C(=O)COC(=O)CNS(=O)(=O)c1ccc(C)cc1,101,i,0.94,6,/,/,/
CC(C)(C)c1ccc(OC(=O)Nc2ccc(O)c(C(=O)O)c2)cc1,108,i,0.96,/,/,/,/
Cn1cccc1Cc1nnc(SCC(=O)NC2CCCC2)n1CCc1ccccc1,103,i,1.4,-2,-2.4,/,/
CCSc1nnc(NC(=O)CSc2nnc(C)c(=O)n2N)s1,98,i,1,-5,/,/,/
Oc1nc(Nc2cccc(Cl)c2)sc1/C=C1\C=Nc2ccccc21,101,i,0.98,-3,0.8,/,/
Fc1ccc(-c2[nH]ncc2CN(CC2CCC2)CC2CCCO2)c(F)c1 (configuration not stated),101,i,1.1,2,/,/,/
CC1CCN(CC(=O)Nc2cc(C(F)(F)F)ccc2Cl)CC1,76,i,1,-7,-2.1,24,117
COc1ccc(/C=N/NC(=O)CSc2n[nH]c(=O)[nH]c2=O)cc1,108,i,0.96,2,-1.6,-209,152
c1cnc2c(c1)ncc1cscc12,97,i,0.89,22,2.1,61,152
CCCn1nc(NC(=O)CC(C)C)c2cc3ccccc3nc21,101,i,0.85,-15,-0.1,-33,75
COC(=O)c1ccccc1NC(=O)COC(=O)c1ccccc1N=Nc1ccc(N(C)C)cc1,105,i,0.81,0,-1.9,31,125
CCOC(=O)N1CCN(S(=O)(=O)c2ccc(C)cc2)C1c1ccccc1 (configuration not stated),109,i,0.95,-5,-1.9,/,/

# An excerpt of these results, as labelled records.
Cc1cc(CNCc2c(C(=O)N3CCCCCCC3)nc3ccc(Cl)cn23)nn1C
  RGS16-Gao = 106 | HSV replic up = i | HSV replic up primary fold = 1 | PKD1 inh = 1 | GALR2 agonist = / | INS promoter inh = 40 | INS promoter inh cell count = 88

CCOC(=O)c1[nH]c2ccc(OC)cc2c1NC(=O)CN1CCc2ccccc2C1
  RGS16-Gao = 166 | HSV replic up = i | HSV replic up primary fold = 0.81 | PKD1 inh = 2 | GALR2 agonist = -1.5 | INS promoter inh = -28 | INS promoter inh cell count = 70

# Six entries from above, with bars between the fields:
mol | RGS16-Gao | HSV replic up | HSV replic up primary fold | PKD1 inh | GALR2 agonist | INS promoter inh | INS promoter inh cell count
C/C(N)=C(/C#N)C(=O)COC(=O)CNS(=O)(=O)c1ccc(C)cc1 | 101 | i | 0.94 | 6 | / | / | /
CC(C)(C)c1ccc(OC(=O)Nc2ccc(O)c(C(=O)O)c2)cc1 | 108 | i | 0.96 | / | / | / | /
Cn1cccc1Cc1nnc(SCC(=O)NC2CCCC2)n1CCc1ccccc1 | 103 | i | 1.4 | -2 | -2.4 | / | /
CCSc1nnc(NC(=O)CSc2nnc(C)c(=O)n2N)s1 | 98 | i | 1 | -5 | / | / | /
Oc1nc(Nc2cccc(Cl)c2)sc1/C=C1\C=Nc2ccccc21 | 101 | i | 0.98 | -3 | 0.8 | / | /
Fc1ccc(-c2[nH]ncc2CN(CC2CCC2)CC2CCCO2)c(F)c1 (configuration not stated) | 101 | i | 1.1 | 2 | / | / | /

# (further entries)
SMILES,RGS16-Gao,HSV replic up,HSV replic up primary fold,PKD1 inh,GALR2 agonist,INS promoter inh,INS promoter inh cell count
CCOC(=O)NC(Nc1ncccn1)(C(F)(F)F)C(F)(F)F,103,i,0.91,-5,-0.5,/,/
CC(SCc1ccccc1)C(=O)NN=C1CCN(C)CC1 (configuration not stated),114,i,0.97,-15,-0.4,-52,87
COCCNC(=O)c1c(CSc2ccccc2)noc1C(=O)NCc1ccccc1,99,i,0.69,/,/,/,/
O=C(NC12CC3CC(CC(C3)C1)C2)c1ccc(-c2cccc(Cl)c2)o1,106,i,1.2,9,0.3,27,135
COc1ccc2cc(C3(C)NC(=O)N(CC(=O)NCc4ccco4)C3=O)ccc2c1 (configuration not stated),101,i,1.1,-1,-2.9,6,78
CCN(CC(=O)NC1CCS(=O)(=O)C1)c1nc(-c2ccccc2)nc2ccccc12 (configuration not stated),105,i,1.1,-4,0.0,/,/
CCCC12CN3CCN(CC(C3)/C1=N\NC(=O)c1ccc(F)cc1)C2,100,i,0.94,-3,/,/,/
C/C(=N\n1c(C)nc2ccccc2c1=O)c1ccc(C)o1,103,i,1.1,/,/,/,/
COC(=O)c1cccc(NC(=S)Nc2cccc(Cl)c2Cl)c1,102,i,1.1,-2,0.6,/,/
O=C(c1ccc(N2CN(C(=O)c3ccco3)c3nc4ccccc4nc32)cc1)N1CCOCC1,90,i,0.83,-7,0.0,/,/
CC(C)(C)c1cc(CN2CCC(O)CC2)cc(C(C)(C)C)c1O,101,i,0.94,-2,-2.6,17,197
CCc1ncc(C(O)c2cccc3ccccc23)n1C (configuration not stated),45,i,0.87,-1,-2.9,/,/
OC1CCN(c2ncnc3nc[nH]c23)CC1,94,i,0.96,3,-3.3,20,129
O=C(Cn1c(-c2cncs2)nc2ccccc21)NCCc1ccccc1,100,i,0.87,-2,-1.9,/,/
S=C(NCCc1ccccc1)N/N=C/c1ccc(Cl)cc1,95,i,0.98,/,/,/,/
CCOC(=O)Cc1cnc(NC(=O)CSc2nc(N)cc(N)n2)s1,80,i,0.92,-3,/,25,116
C(=C\c1cccc2ccccc12)/c1nnc(-c2cccs2)o1,103,i,0.93,2,-2.2,/,/
Cc1ccc(C)c(N(C(=O)c2nsc(Cl)c2Cl)C(C(=O)NC2CCCC2)c2ccc(O)cc2)c1 (configuration not stated),120,i,1.1,0,-0.1,-19,62
COC(=O)CN(c1ccccc1)S(=O)(=O)c1ccc(F)cc1,97,i,0.97,-5,-0.8,31,99
O=c1c2nnn(Cc3ccccc3)c2ncn1-c1ccccc1,96,i,0.96,-2,-1.4,20,123
Cc1nn2c(COc3ccc(NC(=O)C(C)C)cc3)nnc2c2ccccc12,102,i,0.83,-7,/,/,/
CCOc1cccc(OCCCCN2CCCCC2)c1,103,i,0.86,-2,-1.7,/,/

# Whole records, quoted from the list. Order of screens: RGS16-Gao | HSV replic up | HSV replic up primary fold | PKD1 inh | GALR2 agonist | INS promoter inh | INS promoter inh cell count
# Listed for CCc1ncc(C(O)c2cccc3ccccc23)n1C (configuration not stated) : 45 | i | 0.87 | -1 | -2.9 | / | /
# Listed for C/C(=N\n1c(C)nc2ccccc2c1=O)c1ccc(C)o1 : 103 | i | 1.1 | / | / | / | /
